E coli growth: blocks Escherichia coli growth; OD600, 23 h; active compounds read low; OD600 absorbance (concentration not given with the values); hit rate 0.21% among 330,000; AID 1053175;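 active = OD600 absorbance below the run mean of sample wells minus 3.6 SD, in any replicate, cut at about 0.56 in these data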;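 also: stock transfer was 300 nL into about 60 µL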
HNF4A DNA FP: change in binding of human HNF4 alpha to DNA; P41235; HNF4a-FITC DNA binding, fluorescence polarization, 1 h; activity change, % at 10 µM; hit rate 0.3% among 360,000; in the data active = activity change above about 30%, passing the limit was not always enough;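 also: controls were the assay level and a saturating level of protein; the project sought stronger binding though the title names inhibitors; some compounds called inactive have numbers as strong as hits; positive values seem to mean higher polarization but the record does not say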
Target sequence (P41235 whole entry, looked up): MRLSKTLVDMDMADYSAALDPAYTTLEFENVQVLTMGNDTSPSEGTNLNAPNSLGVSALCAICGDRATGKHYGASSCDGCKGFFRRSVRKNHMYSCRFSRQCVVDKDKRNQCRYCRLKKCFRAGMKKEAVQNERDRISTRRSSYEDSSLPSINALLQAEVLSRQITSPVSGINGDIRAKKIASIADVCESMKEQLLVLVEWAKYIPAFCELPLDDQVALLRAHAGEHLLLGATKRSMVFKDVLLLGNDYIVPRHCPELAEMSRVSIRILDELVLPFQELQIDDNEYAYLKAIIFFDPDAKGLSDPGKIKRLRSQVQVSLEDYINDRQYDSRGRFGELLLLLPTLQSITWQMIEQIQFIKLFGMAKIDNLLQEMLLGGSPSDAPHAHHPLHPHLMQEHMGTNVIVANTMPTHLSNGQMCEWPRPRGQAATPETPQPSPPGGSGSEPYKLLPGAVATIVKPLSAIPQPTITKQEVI
Vif TR-FRET: inhibitors of Vif binding to APOBEC3G peptide, primary screen, biochemical, TR-FRET, GST-Vif 1-94, biotin-A3G peptide, dose response retest (AID 1117319); TR-FRET GST-Vif / biotin-A3G peptide binding; higher % means a stronger effect; test concentration not given here; strong numbers were not always called active; one-dose inhibition, %; IC50 in µM for titrated hits; hit rate 0.57% among 260,000;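 active = above the screen mean plus three standard deviations and confirmed in dose response; inconclusive = results disagree or hit not tested in dose response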;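 also: Vif residues 1-94 fused to GST binding biotinylated APOBEC3G peptide 110-148; 0% = full assay without inhibitor and 100% = GST in place of GST-Vif; retest series ran down from 100 µM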
Bfl-1 A1 inh: inhibitors of the anti-apoptotic protein A1, read as caspase activation; caspase activation, % (no concentration beside the values); hit rate 0.066% among 330,000; MEF A1-2A-BIM cells, Caspase-Glo 3/7 luminescence, 3 h; percent of clofoctol response, vehicle zero;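 active = over half of replicate activation scores above 10%, or exactly half above 10 with the replicate mean above 10; inconclusive = replicate mean below 10 yet half the replicates above 10; inactive = over half of replicates below 10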;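 also: wells of about 30 µL received 50 nL stock; many hits fall short of the cut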
LANA-H2A inh: blocks KSHV LANA binding to histone H2A/H2B; cell-free LANA-H2A/H2B peptide, fluorescence polarization; inhibition, % (concentration not given with the values); hit rate 0.6% among 320,000; AID 2629; in the data active = inhibition mostly above about 10%, no sharp cut-off; inactive = mostly below about 6.7%;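 also: stock transfer was 7.5 nL into about 10 µL; 0% = median of vehicle wells and 100% = median of positive control wells; one replicate is shown; the record names a cut of 25% in any replicate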
UCH37 inh: blocks the human deubiquitinase UCH37; Q9Y5K5; purified proteasome/UCH37, Ub-AMC cleavage fluorescence; inhibition, % (test concentration not listed); hit rate 0.33% among 330,000; AID 588478;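 active = mean of two replicates above 20%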;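 also: 0% = compound-free wells with enzyme and 100% = wells lacking proteasome; stock transfer was 100 nL into about 20 µL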
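Material: human UCH37 enzyme supplied as purified proteasome complex / Amount: 0.15 nM proteasome as dispensed / Buffer or medium: pH 7.4 Tris-HCl (50 mM) with ovalbumin, ATP-MgCl2, DTT / Times: preincubation 30 min, reaction 25 min, room temperature / Technique: AMC fluorescence from Ub-AMC cleavage, excitation 355 nm, emission 460 nm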
Beta2AR agonist: human beta-2 adrenergic receptor agonism by FAP. P07550. Am2.2-beta2AR cells, FAP receptor internalization, flow cytometry; reference of the scale not given here. response, % (no concentration beside the values). hit rate 0.43% among 340,000. AID 504454;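 active = response above a set limit, near 3 SD of response in nonfluorescent compounds, cut at about 42% in these data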;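 also: stock transfer was 100 nL into about 11 µL; a reference agonist was the positive control; negative values mostly stem from fluorescent compounds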
Target sequence (P07550 whole entry, looked up): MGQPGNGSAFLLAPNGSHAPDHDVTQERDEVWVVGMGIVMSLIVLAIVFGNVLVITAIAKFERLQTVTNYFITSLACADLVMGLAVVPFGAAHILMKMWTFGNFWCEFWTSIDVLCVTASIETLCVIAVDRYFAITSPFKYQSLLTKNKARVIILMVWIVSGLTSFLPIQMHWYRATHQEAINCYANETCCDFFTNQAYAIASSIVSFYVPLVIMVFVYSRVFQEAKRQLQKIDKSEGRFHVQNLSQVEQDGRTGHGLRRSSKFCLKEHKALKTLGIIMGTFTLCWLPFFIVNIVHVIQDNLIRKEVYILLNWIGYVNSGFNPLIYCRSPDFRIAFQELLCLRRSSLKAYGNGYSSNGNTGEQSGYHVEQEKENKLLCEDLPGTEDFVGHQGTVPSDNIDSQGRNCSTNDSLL
Active calls of the source: *; ? = inconclusive; · = not tested or not shown; & = joins results of further samples. No enrichment for hits; 2.1% or so of the library scored in one or more.

SMILES	E coli growth	HNF4A DNA FP	Vif TR-FRET	Bfl-1 A1 inh	LANA-H2A inh	UCH37 inh	Beta2AR agonist
CCCc1cc(=O)oc2c3c(cc(OCC(=O)NCc4ccncc4)c12)OC(C)(C)CC3	0.711	2.7	·	0.1	22.8	-460.2	3.0
COc1ccccc1N1CCN(/N=C/C=C\c2ccccc2[N+](=O)[O-])CC1	·	1.1	18.8%	-0.2	1.9	·	11.8
CCc1ccc(-n2c(SCC(=O)N3CCC(C(=O)O)CC3)nnc2-c2ccncc2)cc1	0.712	3.9	4.5%	0.8	0.6	0.4	5.8
O=C(C=Cc1ccccc1O)c1ccccc1O	0.57	-3.2	-11.0%	·	·	6.0	27.8
CC(Oc1ccc(Cl)cc1)C(=O)Nc1ccc(S(=O)(=O)Nc2nccs2)cc1 (stereo not given)	0.677	-0.7	·	-0.5	3.3	-2.3	-11.8
COc1ccc(NS(=O)(=O)c2cccc(C(=O)NCCc3ccc(S(N)(=O)=O)cc3)c2)cc1	0.679	0.9	-3.7%	1.1	-6.7	-0.5	-3.4
CC(C)(C)CC(=O)Nc1cc2c3c(c1)CCC(=O)N3CCC2	0.663	1.7	·	1.6	-2.5	1.0	-4.3
Cc1ccc(NC(=O)c2ccc(S(=O)(=O)C(F)F)cc2)c(C)c1	0.69	-1.7	0.5%	-0.5	3.6	1.7	-13.6
[N-]=[N+]=NC[C@H](Cc1ccccc1)N1CC[C@@H](OCc2ccccc2)CCC1=O	·	-0.5	·	-0.2	0.4	2.0	-2.7
O=[N+]([O-])c1ccc(N/N=C/c2ccccc2)cc1	·	16.2	-6.3%	-0.3	2.9	·	7.0
N/C(Cc1ccccc1Sc1ccccc1)=N\O	·	3.0	-1.0%	0.6	2.7	·	-0.3
Cc1cc(NC(=O)COC(=O)c2c(C)c(C)c(C)c(C)c2C)no1	0.726	4.7	·	-0.6	-2.7	-0.6	2.5
Cc1cc(-c2ccccc2)nc(SCC(=O)c2cccc([N+](=O)[O-])c2)n1	0.7	-3.3	-5.7%	2.0	2.1	3.9	-10.3
CC1CCC(NC(=O)CCn2ccc3cc(S(=O)(=O)N4CCCC4)ccc32)CC1 (stereo not given)	0.658	3.5	0.6%	0.1	5.5	2.8	3.1
COc1ccccc1CNC(=O)COC(=O)CC1CC2CCC1C2 (stereo not given)	0.685	-0.2	6.0%	-0.6	-5.0	0.2	-0.9
CCOCCCN1CN(Cc2ccco2)CNC1=S	0.724	-1.3	-0.5%	0.3	0.4	-1.0	-0.2
COCCNC(=O)c1ccccc1NC(=O)C1COc2ccccc2O1 (stereo not given)	0.716	1.6	-0.6%	-0.6	-0.1	-2.7	4.2
CCN(CC)c1ccc(S(=O)(=O)N2CCOCC2)cc1NC(=O)CSc1cccc[n+]1[O-]	0.714	-0.2	·	2.2	-13.2	0.4	2.5
CCOc1ccc(-c2nc(C#N)c(N3CCN(Cc4ccccc4)CC3)o2)cc1	0.79	-3.8	0.8%	0.0	-1.2	-21.8	6.6
COC(=O)C(O)(CC(=O)Nc1ccccc1OC)C(F)(F)F (stereo not given)	0.704	-0.7	7.1%	-0.7	1.4	-0.3	-0.1
COc1nccnc1NS(=O)(=O)c1ccc(NC(=S)NC(=O)c2ccc(F)cc2)cc1	0.595	0.7	?	-6.9	0.0	3.3	7.3
COc1cc2c(cc1OC)CN(C(=O)CN1C(=O)NC3(CCC(C)CC3)C1=O)CC2 (stereo not given)	0.678	1.9	-4.8%	-0.8	7.9	2.9	-8.3
COc1ccc(CNc2nc(C)cc(C)c2C#N)cc1	0.631	-1.6	2.3%	-0.8	-0.1	-37.9	-4.0
CCCOP(=O)(OCCC)C(Nc1ccc(C(=O)O)cc1)c1ccccc1 (stereo not given)	0.66	-4.1	-1.8%	0.3	-3.1	-18.8	2.9
NS(=O)(=O)c1ccc(N2N=C(c3ccc(Br)cc3)CC2c2ccc(F)cc2)cc1 (stereo not given)	0.675	1.3	-11.7%&63.2%	0.0	-6.2	-345.1	10.8
(listing goes on)
SMILES	E coli growth	HNF4A DNA FP	Vif TR-FRET	Bfl-1 A1 inh	LANA-H2A inh	UCH37 inh	Beta2AR agonist
O=C(Cn1cc([N+](=O)[O-])nc1[N+](=O)[O-])N1CCN(c2ccccc2)CC1	0.666	-1.9	·	1.1	2.3	2.3	-8.1
N#Cc1ccc(C(=O)Nc2cc(-c3ccc(F)cc3)nn2-c2ccccc2)cc1	0.673	1.8	·	1.0	-0.3	-0.7	-11.9
C=CCN=C1N[C@@H](c2ccccc2)C(C(=O)OC)=C(C)N1CC	·	-4.9	·	0.2	-3.9	3.2	1.0
CCSc1nnc(NC(=O)c2cccnc2Cl)s1	0.677	-1.3	12.0%	-3.5	-1.8	2.8	2.0
O=C(NC(=S)Nc1cccnc1)c1ccccc1	0.679	0.3	·	-1.6	-1.0	2.7	-4.2
COc1cc(OC)cc(-c2n[nH]c(=S)n2-c2ccc3c(c2)OCCO3)c1	0.678	3.0	·	0.6	-2.0	0.3	16.4
Cc1ccc(NC(=O)CCC(=O)NNC(=O)COc2ccccc2)c(C)c1	0.715	-1.3	6.0%	-0.3	-2.7	3.2	·
Cc1cccc(OCC(=O)NNC(=O)c2cccs2)c1	0.634	-1.5	3.5%	0.5	1.0	2.4	-3.7
Cn1c(=O)[nH]c(=O)c2c1nc(SCCO)n2CC(O)COc1ccccc1 (stereo not given)	0.648	1.6	·	-0.1	-3.3	1.1	5.0
COc1ccccc1OCC(=O)Nc1ccc2c(c1)OCCO2	0.662	-0.9	·	0.3	2.5	7.0	5.5
CC(=O)Nc1ccc(NC(=O)C(C)OC(=O)CCN=C2NS(=O)(=O)c3ccccc32)cc1 (stereo not given)	0.706	6.6	1.4%	0.0	-0.3	4.0	-4.2
CCOc1ccc(NC2C=CS(=O)(=O)C2)cc1 (stereo not given)	0.695	0.5	28.2%	0.5	-1.3	4.3	3.5
CCCNc1c(NC(=O)c2ccc3c(c2)OCO3)c(=O)oc2ccccc12	0.687	0.2	·	-0.3	-1.2	0.8	-0.9
CCc1cccc(NC(=O)C2CCCN2S(=O)(=O)c2ccccc2C(F)(F)F)c1 (stereo not given)	0.685	-0.1	5.1%	·	·	2.9	-6.5
Cc1cc(OCC(O)CN(C)C(=O)C(C)Oc2ccccc2)ccc1Cl (stereo not given)	0.702	1.2	·	0.1	0.5	2.4	-3.5
O=C(NCc1ccncc1)C1CCN(C(=O)c2cccc(Cl)c2)CC1	0.693	2.9	·	-0.6	2.6	-0.5	-6.3
Nc1ccccc1Nc1cc(-c2cccc(Cl)c2)nn1-c1ccccc1	0.698	1.1	·	-0.8	-5.3	2.4	-17.8
CC1CCC(=C(C#N)C(=O)Nc2cccc(Cl)c2)CC1 (stereo not given)	0.684	0.3	-2.7%	-0.3	1.2	-0.3	4.2
O=C1CN(S(=O)(=O)c2ccccc2)CCN1	0.68	0.2	-4.2%	-1.7	0.2	3.8	-2.1
CSCCC1NC(=O)N(CC(=O)Nc2ccc3c(c2)OCCO3)C1=O (stereo not given)	0.625	2.9	·	0.3	1.8	1.5	11.9
CCOC(=O)c1c(C)[nH]c(C(=O)COC(=O)c2ccc(F)c(S(=O)(=O)N3CCOCC3)c2)c1C	0.74	3.7	-3.3%&-2.6%	0.1	-3.0	3.9	11.8
Cc1occc1C(=O)NNC(=O)CN1C(=O)NC(C)(c2ccccc2)C1=O (stereo not given)	0.626	-0.3	-1.3%	-0.5	2.3	0.3	-0.8
COc1ccc(C2=NN(CC(=O)NCC(OC)OC)C(=O)CC2)cc1	0.63	-2.4	-8.8%	2.9	3.3	2.7	5.6
Cc1cc(/C=C/C(=O)O)c(C)n1-c1ccc(Cl)cc1	·	4.8	?	2.0	-3.4	·	-0.8
CCCN(CC1CCCO1)C(=O)CCc1nnc(CCc2ccc(OC)cc2)o1 (stereo not given)	0.642	2.6	·	0.3	3.0	0.7	1.8
Additional records follow:
SMILES	E coli growth	HNF4A DNA FP	Vif TR-FRET	Bfl-1 A1 inh	LANA-H2A inh	UCH37 inh	Beta2AR agonist
O=c1[nH]cc(C(F)(F)F)cc1NS(=O)(=O)c1ccccc1[N+](=O)[O-]	0.718	4.1	-3.1%	-0.6	-1.2	2.8	-4.5
O=C(Nc1nccs1)C1CC(=O)N(c2ccc(F)cc2)C1 (stereo not given)	0.646	-4.3	·	0.5	0.4	1.5	-3.3
CC(C)CC(=O)Nc1ccc(-c2nc3ccccc3c(=O)o2)cc1	0.717	0.9	·	-3.0	-2.4	-5.3	-0.3
O=C1c2ccccc2C(=O)N1Cc1cccnc1	0.697	-0.1	·	-0.1	3.3	5.6	-3.7
Cc1cccc(NC(=O)CCNC(=O)c2ccco2)c1	0.711	0.9	·	0.8	-1.9	3.1	2.8
Cc1ccc(N(C(=O)c2snc(C(N)=O)c2N)C(C(=O)NCc2ccccc2)c2ccncc2)c(C)c1 (stereo not given)	0.657	-0.7	·	0.7	-3.1	-95.8	-1.7
O=C(NCCN1CCCCC1)Nc1ccccc1Cl	0.707	6.6	·	-0.6	2.5	1.6	0.2
Cc1ccc(C(=O)NNC(=O)C2CCN(C(=O)OC(C)(C)C)CC2)cc1	0.705	-2.0	·	0.2	-2.1	1.2	-2.5
CCN(c1ccccc1)S(=O)(=O)c1ccc(C(=O)N2CCOCC2)cc1	0.721	-1.4	·	-0.8	-2.6	1.3	-6.0
O=C(Nc1ccc(C(=O)Nc2ccccc2Cl)cc1)c1cccnc1	0.602	3.9	·	-1.0	-0.5	1.3	1.6
NC1=NC[C@H](Cc2ccc(O)cc2)N1CCC12CC3CC(CC(C3)C1)C2	·	0.4	·	2.2	0.1	1.6	7.4
COc1ccc(-n2c(=S)[nH]c3cc(C(=O)Nc4ccc(F)cc4)ccc3c2=O)c(OC)c1	0.671	2.7	·	-0.4	-7.9	2.4	8.0
Cc1onc(-c2c(F)cccc2Cl)c1C(=O)Nc1nnc(C(F)(F)F)s1	0.695	2.3	·	0.4	-2.6	0.6	9.8
O=C1C(=O)N(Cc2cccc([N+](=O)[O-])c2)c2ccccc21	0.699	-5.0	0.5%	0.9	-1.1	5.0	10.3
CCc1noc(C)c1C(=O)OCC(=O)NCCc1ccc(OC)cc1	0.637	2.9	-3.7%	·	·	1.6	-0.9
O=c1c([N+](=O)[O-])cn(Cc2ccccc2)c(=O)n1Cc1ccccc1	0.673	0.1	5.3%	·	·	8.2	16.2
COc1ccccc1CNC(=O)C1CCCN(S(=O)(=O)c2c(C)[nH]c(=O)[nH]c2=O)C1 (stereo not given)	0.728	-1.0	4.5%	1.4	-1.6	2.4	0.8
Cc1ccc(C)c(NC(=S)N(Cc2ccc(Cl)cc2)Cc2ccc(C(=O)O)cc2)c1	0.69	-4.9	-5.8%	0.2	0.3	5.3	14.7
CC(C)c1ccc(NC(=O)N2CCc3ccccc3C2)cc1	0.636	0.1	·	-0.5	3.1	1.4	7.5
FC(F)(F)c1cc(CCN2CCNC[C@@H]2c2ccccc2)cc(C(F)(F)F)c1	·	4.2	·	1.5	-0.3	-1.1	24.5
CC1CN(C(=O)c2ccccc2)c2ccccc2NC1=O (stereo not given)	·	2.1	-3.5%	2.3	-2.3	·	-0.1
COc1ccccc1/C=C/C(=O)N1CCCC1	0.63	0.2	0.6%	0.1	-3.9	-5.7	-4.8

Shown with bars between the fields: part of the list above.
compound | E coli growth | HNF4A DNA FP | Vif TR-FRET | Bfl-1 A1 inh | LANA-H2A inh | UCH37 inh | Beta2AR agonist
O=c1[nH]cc(C(F)(F)F)cc1NS(=O)(=O)c1ccccc1[N+](=O)[O-] | 0.718 | 4.1 | -3.1% | -0.6 | -1.2 | 2.8 | -4.5
O=C(Nc1nccs1)C1CC(=O)N(c2ccc(F)cc2)C1 (stereo not given) | 0.646 | -4.3 | · | 0.5 | 0.4 | 1.5 | -3.3
